StopGo reporter = High Throughput Screening for Foot and Mouth Disease Virus Antivirals; AID 1159524, 2015; human cells with a luciferase reporter of 2A StopGo recoding; control for the full effect not named in the record; 410,000 tested, 1.2% active; Potency, µM (highest dose often 57.9 µM), without a hit: at the highest dose signal change, negative = less light; active = well fitted falling curve with a large enough effect; inconclusive = small, poorly fitted or top-dose-only effect; inactive = no such curve, though single readings can be large or run the other way; tested in HEK293T cells; also: % is scaled to controls: 0 for no effect and ±100 for the full control effect; nearly all actives have a fitted effect of over 45% in size; luciferase light after 4 h
SARS PLpro yeast = qHTS of Yeast-based Assay for SARS-CoV PLP. 330,000 tested, 0.19% active. AID 485353, 2010. Potency, µM (doses to about 32.9 µM), for inactives: at the top dose activity, positive = growth rescue. S. cerevisiae expressing SARS-CoV PLpro, growth rescue; control for the full effect not named in the record; active means well fitted rising curve with a large enough effect; inconclusive means small, poorly fitted or top-dose-only effect; inactive means no such curve, though single readings can be large or run the other way; also: 0% is about no effect; nearly all actives have a fitted effect of over 55% in size; growth read by luminescence after 48 h
RE007 growth inh = qHTS Assay for Inhibitors of the HIV-1 protein Vpr. S. pombe RE007 Vpr strain, BacTiter-Glo ATP luminescence, 24 h; control for the full effect not named in the record. 360,000 tested, 0.21% active. Potency, µM (top dose mostly 92.2 µM), for inactives: at the highest dose activity change, negative = less growth; active = well fitted falling curve with a large enough effect; inconclusive = small, poorly fitted or top-dose-only effect; inactive = no such curve, though single readings can be large or run the other way;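 also: % is scaled to controls: 0 for no effect and ±100 for the full control effect; nearly all actives have a fitted effect of over 50% in size; the assay follows cell death caused by Vpr and the record does not say whether a fall means rescue or toxicity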
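Fission yeast strain RE007, carrying one chromosomally integrated HIV-1 vpr copy, was seeded at OD 0.01 in PMG+AL medium with 23 nL pinned compound. After 24 h at 30 °C and 99% humidity, viability was read by BacTiter-Glo luminescence.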
Starred values were filed as active, the others as inactive; ? = inconclusive; & = joins results of further samples; [ ] = remark or other dose. Potency is read from the fitted curve at half-maximal effect. This is a subset; rates above refer to the full screens.

SMILES | StopGo reporter | SARS PLpro yeast | RE007 growth inh
CCOc1ncccc1C(=O)Nc1cccc(S(=O)(=O)N2CCCCC2)c1 | -16.9% | -1.6% | 7.4%
Cc1ccc(SCC(=O)N=C2NC(=O)CS2)cc1 | -12.3% | 0.6% | 18.4%
COc1ccc(C2CC(C(C)(C)C)=NN2c2ccc(S(N)(=O)=O)cc2)cc1 (stereo not drawn) | -22.9% | 3.3% | 9.8%
O=C(O)/C(=C\c1cccs1)c1ccc(F)cc1 | -4.9% | 0.0% | 1.5%
COc1ccc([C@@H]2CC(=O)c3c(O)cc(O[C@@H]4OC(CO[C@@H]5OC(C)[C@H](O)[C@@H](O)[C@H]5O)[C@@H](O)[C@H](O)[C@H]4O)cc3O2)cc1O (stereo partly drawn) | -11.8% | 1.6% | 7.8%
O=C(CSc1nnnn1C1CC1)N1CCN(c2ccc(O)cc2)CC1 | 16.2% | 8.1% | -12.8%
CCOC(=O)[C@H]1[C@H]2COc3cc(OC)ccc3[C@@H]2N2C(=O)CN(Cc3ccc(C)cc3)C(=O)[C@@]12C | -4.2% | -16.0% | 7.6%
CCCCC(CC)C(=O)Nc1cc(C(=O)NCCC)ccc1N1CCC2(CC1)CC(c1cccc(Br)c1)=NO2 (stereo not drawn) | -15.4% | -2.4% | -4.9%
O=S1(=O)N=C2CCCCCN2C(c2ccccc2)N1 (stereo not drawn) | -0.2% | -0.2% | -1.7%
CC1Nc2ncnc(N3CCOCC3)c2N(Cc2ccc(Cl)cc2)C1=O (stereo not drawn) | -10.2% | -3.4% | 5.1%
CN(C(=O)CSc1n[nH]c(=O)[nH]c1=O)c1ccccc1 | -20.5% | 2.5% | 3.3%
CC(=O)N1CCC2(CC1)C/C(=N\NC(=S)Nc1ccc(C)cc1)c1cc(O)ccc1O2 | -5.0% | 1.2% | 10.4%
CCSc1ccc([C@@H]2[C@@H]3C(=O)N(CC)C(=O)[C@@H]3[C@]3(C(=O)OC)CCCCN23)cc1OC | -26.4% | 1.1% | -2.5%
CCOC(=O)Cc1csc(NC(=O)c2ccc(C)c(S(=O)(=O)N3CCOCC3)c2)n1 | 31.6µM* | 6.7% | 22.9%
CCOC(=O)C(Cc1ccccc1)C(=O)c1ccco1 (stereo not drawn) | 3.5% | 0.2% | -3.2%
COc1cccc(NC(=S)NCc2ccc3c(c2)cc(C)n3C)c1 | 20.6% | -0.9% | 2.6%
CCC/C(=N\NC(=O)c1ccc(OC)c(OC)c1)c1ccccc1 | -12.3% | -3.2% | 31.2%
O=C1NC2(CCN(Cc3ccccc3)CC2)Oc2ccccc21 | -12.0% | -1.0% | 0.3%
CC(Oc1ccccc1F)c1nnc(SCC(=O)NCc2ccc3c(c2)OCO3)o1 (stereo not drawn) | -20.2% | -0.9% | -4.4%
COc1ccc(C(CNC(=O)c2cccc(S(=O)(=O)N3CCCC(C)C3)c2)N(C)C)cc1 (stereo not drawn) | -15.8% | 0.0% | 8.2%
CCCCn1c(N)c(N(CCOC)C(=O)c2ccc(N3CCCC3=O)cc2)c(=O)[nH]c1=O | -22.8% | 0.2% | -5.2%
Cc1cccc(C(=O)OCC(=O)NCC2CCCO2)c1O (stereo not drawn) | 26.6% | 5.3% | 3.3%
COc1cc2cc(C[C@H](C)O)oc(=O)c2cc1OC | 3.7% | 9.4% | 9.4%
CC(=O)Nc1cccc([N+](=O)[O-])c1 | 4.9% | -1.1% | 4.5%
CC(C)NC(=O)N(C)C[C@H]1Oc2ccc(NC(=O)Nc3ccc4c(c3)OCO4)cc2C(=O)N([C@H](C)CO)C[C@@H]1C | 5.6% | -0.6% | -2.0%
COc1ccc(CCNS(=O)(=O)c2ccc3c(c2)CCCC3)cc1OC | 11.9% | 0.2% | -7.8%
O=C(C[C@H]1C[C@H](C(=O)N2CCCCC2)[C@@]2(CCc3ccccc3)c3[nH]c4ccc(Cl)cc4c3CCN2C1=O)NCCc1ccccn1 | ? | -2.4% | -10.5%
O=S(=O)(NCCOc1ccccc1F)c1ccc(Cl)cc1F | 22.0% | -4.5% | -12.5%
CC[C@]1(c2ccccc2C)ON(c2ccccc2C(F)(F)F)C1=O | 0.0% | -7.0% | 10.2%
COc1ccc(OCCNc2c([N+](=O)[O-])c(=O)oc3ccccc23)cc1 | ? | -0.6% | 0.2%
O=C(C[C@@H]1C/C=C\CC[C@@H](Cc2ccc(F)cc2)C(=O)OC[C@@H]2CCCN2C1=O)NCCO | -10.1% | 5.6% | 17.1%
COc1ccccc1N(Cc1ccccc1)S(=O)(=O)c1cccc(C(=O)N2CCCCC2)c1 | 6.6% | -4.6% | 15.7%
COc1ccc(S(=O)(=O)N(C)C[C@H]2Oc3ccc(NC(=O)Nc4ccc5c(c4)OCO5)cc3CC(=O)N([C@@H](C)CO)C[C@@H]2C)cc1 | -16.3% | -10.1% | 11.3%
CN(C)Cc1c(C(=O)Nc2ccccc2)[nH]c2ccccc12 | 7.0% | 0.7% | -1.1%
COc1ccc(NC(=O)CSc2nnc(C3CC3)n2C)cc1S(=O)(=O)N1CCCCC1 | -11.9% | -3.3% | -0.2%
CCN(CC(=O)NCc1cccs1)S(=O)(=O)c1cc(NC(C)=O)ccc1OC | 5.9% | 3.5% | -16.4%
Cc1ccc(S(=O)(=O)N2[C@@H](c3ccc(Cl)cc3)C(C(=O)O)=C[C@H]2C(C)(C)C)cc1 | -10.9% | 2.8% | 6.8%
CC(C)(C)NCC(O)COc1cccc2c1CCC(=O)N2 (stereo not drawn) | -22.8% | -1.1% | 5.6%[18.4 µM]
CCS(=O)(=O)Nc1cccc(C2=NN(S(=O)(=O)c3ccc(C)cc3)C(c3ccco3)C2)c1 (stereo not drawn) | 8.8% | 2.5% | -4.1%
COc1ccc(C(=O)Oc2cc(N)n(S(=O)(=O)c3ccccc3)n2)cc1 | 36.8%[activator] | 0.2% | 3.8%

Of the compounds above, 3 contain a tert-butyl group.
SMILES | StopGo reporter | SARS PLpro yeast | RE007 growth inh
COc1ccc(C2CC(C(C)(C)C)=NN2c2ccc(S(N)(=O)=O)cc2)cc1 (stereo not drawn) | -22.9% | 3.3% | 9.8%
Cc1ccc(S(=O)(=O)N2[C@@H](c3ccc(Cl)cc3)C(C(=O)O)=C[C@H]2C(C)(C)C)cc1 | -10.9% | 2.8% | 6.8%
CC(C)(C)NCC(O)COc1cccc2c1CCC(=O)N2 (stereo not drawn) | -22.8% | -1.1% | 5.6%[18.4 µM]

Remaining list, next part
SMILES | StopGo reporter | SARS PLpro yeast | RE007 growth inh
O=C1CN(C(=O)COC(=O)c2ccc([N+](=O)[O-])o2)c2ccccc2N1 | -22.0% | -0.9% | -2.8%
COc1ccc(S(=O)(=O)N2CCN(CCOc3ccccc3Cl)CC2)cc1OC | -29.2% | 1.1% | 4.8%
COC(=O)c1ccccc1S(=O)(=O)N1CCC(C(=O)NC2CCCCC2)CC1 | 1.8% | -8.1% | -14.4%
CCN(C[C@H]1N[C@@](C)(C(=O)OC)[C@H]2C(=O)N(C)C(=O)[C@@H]12)S(=O)(=O)c1ccc(C)cc1 | -19.5% | 2.8% | -12.8%
Cc1nnc(SCC(=O)Nc2cccc(S(=O)(=O)N3CCCCC3)c2)s1 | -8.0% | 4.5% | 7.3%
C[C@H](CO)N1C[C@H](C)[C@@H](CN(C)C(=O)Nc2ccccc2)Oc2c(cccc2N(C)C)C1=O | 102.5%[activator] | -2.0% | 1.2%
CC1CCCN(S(=O)(=O)c2ccc(NC(=O)[C@@H]3CCCN3C(=O)c3cccs3)cc2)C1 (stereo partly drawn) | -13.1% | -4.9% | -0.6%
CN(C(=O)CNc1ccccc1Cl)C1CCS(=O)(=O)C1 (stereo not drawn) | -10.3% | 20.0% | 6.7%
Cc1ccc(S(=O)(=O)N2CCCCC2)cc1NC(=O)c1cc2ccccc2o1 | -20.1% | 3.6% | -11.6%
COc1ccccc1N1CCN(C(=O)c2ccc(-c3ccc(Cl)cc3)o2)CC1 | -21.4% | -12.0% | 4.2%
CN(C(=O)/C=C/c1ccc([N+](=O)[O-])s1)c1ccccc1 | ? | -1.9% | -26.4%
CCOC(=O)C1CCCN(S(=O)(=O)c2ccc3c4c(cccc24)C(=O)N3CC)C1 (stereo not drawn) | ? | -3.6% | 1.5%
CC1CCCCN1C(=O)Cn1c(=O)n(-c2ccc(F)cc2)c(=O)c2sccc21 (stereo not drawn) | -22.0% | -1.3% | 0.8%
COc1cc(C2CC(=O)Oc3cc(OC)c(OC)c(OC)c32)cc(OC)c1OC (stereo not drawn) | -2.9% | 13.1% | -1.0%
CC(=O)N/C(=C/c1ccccc1)c1ccccc1 | -6.5% | 1.8% | -2.1%
CCc1ccc(OCC(=O)NCCc2ccc3c(c2)OCCO3)cc1 | -10.2% | -6.8% | -10.3%
CC(=O)Oc1ccc(C#C/C=C2\c3ccccc3C(=O)N2c2ccccc2)cc1 | 37.6%[activator] | -30.2% | 7.4%
c1cc(CCCc2ccncc2)ccn1 | -15.2% | -7.7% | 3.1%
CC(C)(CNC(=O)c1cc([N+](=O)[O-])ccc1N1CCC(Cc2ccccc2)CC1)N1CCOCC1 | -27.9% | -0.7% | -5.7%
CCc1ccc(C(=O)c2cnc3ccc(OC)cc3c2N2CCN(CC)CC2)cc1 | 0.0% | -0.3% | 0.0%
Cc1ccc(C(=O)NCC(c2cccs2)N(C)C)cc1S(=O)(=O)N1CCOCC1 (stereo not drawn) | 9.2% | -6.4% | -4.5%
Cc1cc2ccccn2c1C(=O)c1nc(NCc2ccccc2)ncc1Cl | -26.2% | -6.7% | -4.6%
CC(C)[C@H](NC(=O)OCc1ccccc1)C(=O)N[C@@H](Cc1c[nH]c2ccccc12)C(=O)O | 2.1% | 0.9% | 10.3%
Cc1ccc(NC(=O)CN(C)C(=O)c2ccc(NS(=O)(=O)c3ccc4[nH]c(=O)[nH]c4c3)cc2)cc1 | -22.4% | -4.3% | -2.7%
CN1C=C/C(=C\c2cc[n+](C)c3ccccc23)c2ccccc21 | 17.8µM* | -5.6% | 3.16µM*
COc1ccc(C(=O)C(C)OC(=O)CNC(=O)c2ccco2)cc1 (stereo not drawn) | -0.5% | -1.9% | -6.1%
COC(=O)CNC(=O)c1cccc(Cl)c1 | -2.0% | -2.2% | 1.8%
O=C(COC(=O)c1cc(Cl)ccc1O)NC(=O)NCc1ccccc1 | 0.0% | 2.8% | 1.7%
COc1cc2c(cc1OC)CN(C(=O)CSc1ccc(F)cc1)CC2 | -26.8% | 1.5% | 11.9%
C[C@H]1CN=C(Nc2ccccc2)N1CCc1ccc(F)cc1 | -16.4% | -0.7% | -13.4%

Profiles, quoted from the list.
Profile of Cc1cc2ccccn2c1C(=O)c1nc(NCc2ccccc2)ncc1Cl → StopGo reporter = -26.2%; SARS PLpro yeast = -6.7%; RE007 growth inh = -4.6%
Profile of CN1C=C/C(=C\c2cc[n+](C)c3ccccc23)c2ccccc21 → StopGo reporter = 17.8µM*; SARS PLpro yeast = -5.6%; RE007 growth inh = 3.16µM*

New compounds follow
SMILES | StopGo reporter | SARS PLpro yeast | RE007 growth inh
COc1ccc(C(C)=O)cc1COC(=O)C1CCN(C(=O)c2ccc(Cl)cc2)CC1 | -11.4% | -2.2% | -11.7%
COC(=O)NCC(c1ccco1)N1CCN(c2ccccc2)CC1 (stereo not drawn) | -6.6% | -2.2% | 1.4%
O=C(COC(=O)c1ccc(F)c(S(=O)(=O)N2CCOCC2)c1)NCCc1ccc(F)cc1 | -1.2% | -0.1% | 22.9%
O=C(Nc1ccccc1Cl)C1CC(=O)N(Cc2ccco2)C1 (stereo not drawn) | -9.6% | -6.3% | 13.5%
O=C(NCCCN1CCOCC1)c1cccc(NS(=O)(=O)c2ccc(Br)cc2)c1 | -14.5% | 4.6% | 4.9%
CC(C)(C)C(C(=O)n1cccc1C#N)c1ccccc1 (stereo not drawn) | -9.8% | -3.5% | 4.4%
Cc1ccc(NC(=O)COC(=O)C2=NNC(=O)CC2)c(Br)c1 | -12.8% | 1.5% | 3.7%
CC1CN(C2=CC(=O)CCC2)CC(C)O1 (stereo not drawn) | -11.2% | 0.7% | 14.9%
O=C(CN1C(=O)NC(CCc2ccccc2)C1=O)Nc1cccc(Br)c1 (stereo not drawn) | -20.7% | -0.1% | -8.4%
CCCCOC(=O)c1ccc(NC(=O)COC(=O)c2ccc3ncsc3c2)cc1 | 32.8%[activator] | 4.9% | 9.1%
Cc1ccccc1C(=O)N1CCC(C(=O)NN2C(=O)NC3(CCCCC3)C2=O)CC1 | -9.5% | 0.8% | -4.4%
CCC1Nc2ncnc(N3CCCCC3)c2N(Cc2ccc(C)cc2)C1=O (stereo not drawn) | -20.8%&0.0% | 6.5% | -11.5%&5.3%
COc1ccc2c(c1)OC[C@H]1[C@H]2N2C(=O)[C@H](C)NC(=O)[C@@]2(C)[C@H]1c1ccccc1 | -3.7% | 0.3% | -8.1%
CN(C)S(=O)(=O)c1cc(NC(=O)CSc2cccc[n+]2[O-])ccc1Cl | -5.1% | 0.3% | -5.8%

High-throughput results (PubChem)
